High-throughput results deposited in PubChem by several laboratories.
CBX7 inh: blocks human CBX7 binding to H3K27me3 peptide | O95931 | AlphaScreen His6-CBX7 / biotin-H3K27me3 peptide binding; active compounds read low | normalised signal (fraction of DMSO) (test concentration not listed) | actives 1.1% (n = 66,000) | AID 1224903; in the data active means normalised signal below about 0.5;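 further: 100 nL library stock added to about 20 µL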
Target sequence (O95931 whole entry, looked up): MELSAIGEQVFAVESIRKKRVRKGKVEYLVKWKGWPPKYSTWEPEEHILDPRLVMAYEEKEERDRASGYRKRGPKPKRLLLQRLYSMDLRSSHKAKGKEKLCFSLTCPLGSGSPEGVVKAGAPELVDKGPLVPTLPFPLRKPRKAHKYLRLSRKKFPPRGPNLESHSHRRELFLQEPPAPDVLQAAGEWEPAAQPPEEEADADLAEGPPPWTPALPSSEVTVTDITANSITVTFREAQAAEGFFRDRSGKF
CBX7 inh z-score: further read-out of CBX7 inh, marked with its call; z-score; measured here: z-score of CBX7 signal; some inactives read as strong as hits; reference of the scale not given here;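 same signal on another scale; lower means less binding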
* marks the source's active call; other numbers are inactive results.

Start of the listing, in advance, 7 compounds:
Results for O=C(CCCn1c(=O)[nH]c2ccsc2c1=O)N1CCN(c2ncccn2)CC1 ?
CBX7 inh: 1; CBX7 inh z-score: 0.2

How did O=C(Nc1ccc2oc(-c3cccnc3)nc2c1)c1ccc(-c2ccccc2OC(F)(F)F)o1 do in these assays?
CBX7 inh: 0.98; CBX7 inh z-score: -1.2

Results for Cn1cc(CC(=O)NCC2COc3ccccc3O2)c2ccccc21 (configuration not stated) ?
CBX7 inh: 1.2; CBX7 inh z-score: 1.9

Results for Cc1ccc(OCc2nnc(SCC(=O)Nc3nc(-c4ccccc4)cs3)o2)cc1 ?
CBX7 inh: 0.95; CBX7 inh z-score: -0.58

What do the screens show for `Cc1oc(-c2ccc(Cl)cc2)nc1CN1CCCC(C(=O)NCCc2ccccc2)C1` (configuration not stated)?
CBX7 inh: 1; CBX7 inh z-score: 1.9

What do the screens show for `COc1cc(OC)c(NC(=O)c2cnn(-c3ccc(F)cc3)c2C2CCNCC2)cc1Cl`?
CBX7 inh: 0.95; CBX7 inh z-score: -0.97

Results for CC1CCN(c2nc(-c3ccccc3)nc3ccccc23)CC1 ?
CBX7 inh: 1.1; CBX7 inh z-score: 0.56

The whole of this part, from the start:
Results for O=C(CCCn1c(=O)[nH]c2ccsc2c1=O)N1CCN(c2ncccn2)CC1 ?
CBX7 inh: 1; CBX7 inh z-score: 0.2

How did O=C(Nc1ccc2oc(-c3cccnc3)nc2c1)c1ccc(-c2ccccc2OC(F)(F)F)o1 do in these assays?
CBX7 inh: 0.98; CBX7 inh z-score: -1.2

Results for Cn1cc(CC(=O)NCC2COc3ccccc3O2)c2ccccc21 (configuration not stated) ?
CBX7 inh: 1.2; CBX7 inh z-score: 1.9

Results for Cc1ccc(OCc2nnc(SCC(=O)Nc3nc(-c4ccccc4)cs3)o2)cc1 ?
CBX7 inh: 0.95; CBX7 inh z-score: -0.58

What do the screens show for `Cc1oc(-c2ccc(Cl)cc2)nc1CN1CCCC(C(=O)NCCc2ccccc2)C1` (configuration not stated)?
CBX7 inh: 1; CBX7 inh z-score: 1.9

What do the screens show for `COc1cc(OC)c(NC(=O)c2cnn(-c3ccc(F)cc3)c2C2CCNCC2)cc1Cl`?
CBX7 inh: 0.95; CBX7 inh z-score: -0.97

Results for CC1CCN(c2nc(-c3ccccc3)nc3ccccc23)CC1 ?
CBX7 inh: 1.1; CBX7 inh z-score: 0.56

How did CCOc1cccc(C2CC(=O)Nc3c2cc(Br)c2ccccc32)c1 (configuration not stated) do in these assays?
CBX7 inh: 1; CBX7 inh z-score: 0.17

How did O=C(CC1Nc2ccccc2NC1=O)Nc1ccc(C(F)(F)F)cc1 (configuration not stated) do in these assays?
CBX7 inh: 0.93; CBX7 inh z-score: -2.1

How did Cc1ccc(OCCn2c(COc3ccc(C(C)(C)C)cc3)nc3ccccc32)cc1 do in these assays?
CBX7 inh: 0.96; CBX7 inh z-score: -1

How did COc1ccc(-c2cc(C(=O)NCC(C)C)no2)cc1OC do in these assays?
CBX7 inh: 1.2; CBX7 inh z-score: 1.7

What do the screens show for `Cc1ccc(-c2cc(C(F)F)n3ncc(C(=O)NCCCn4ccnc4)c3n2)cc1`?
CBX7 inh: 1; CBX7 inh z-score: 0.71

Results for CCOc1cc2c(cc1OCC)C(c1cc3ccccc3s1)NCC2 (configuration not stated) ?
CBX7 inh: 0.77; CBX7 inh z-score: -3.9

What do the screens show for `COc1ccc(NC(=O)[C@H](CSCc2ccccc2)N2Cc3ccccc3C2=O)cc1Cl`?
CBX7 inh: 0.87; CBX7 inh z-score: -3

What do the screens show for `CCOC(=O)CNC(=O)c1cc2c(n(-c3ccc(C)cc3)c1=O)CCCC2=O`?
CBX7 inh: 1.2; CBX7 inh z-score: 0.8

How did CC1CCN(S(=O)(=O)c2ccc3c(c2)N(CC(=O)NC2CCCCCCC2)C(=O)CS3)CC1 do in these assays?
CBX7 inh: 0.85; CBX7 inh z-score: -1.7

What do the screens show for `Cc1cccc(N(C)C(=O)Cc2c(C(=O)O)n(C)c3ccccc23)c1`?
CBX7 inh: 1.1; CBX7 inh z-score: 1.8

What do the screens show for `Cc1ccc(C(=O)Nc2ccc3oc(-c4ccc(F)cc4)nc3c2)cc1C`?
CBX7 inh: 1; CBX7 inh z-score: 0.72

What do the screens show for `Cc1ccc(-c2nc(N3CCN(c4ccc(F)cc4)CC3)c3ccccc3n2)cc1`?
CBX7 inh: 0.95; CBX7 inh z-score: -0.088

How did Cc1cccc(C)c1NC(=O)N1CC=C(n2c(=O)[nH]c3ccccc32)CC1 do in these assays?
CBX7 inh: 1; CBX7 inh z-score: 2.1

What do the screens show for `O=C1CC(CCC(=O)NC2CC2)c2ccccc2N1` (configuration not stated)?
CBX7 inh: 1; CBX7 inh z-score: -0.098

What do the screens show for `Cc1cc(C)cc(NC(=O)c2cccc3c2C(=O)N(C2CCCCC2)C3)c1`?
CBX7 inh: 1; CBX7 inh z-score: 0.21

What do the screens show for `NS(=O)(=O)c1ccc(CCNC2CC(=O)N(CC(c3ccccc3)c3ccccc3)C2=O)cc1` (configuration not stated)?
CBX7 inh: 1.2; CBX7 inh z-score: 1.6

What do the screens show for `Cn1c(SCC(=O)c2ccc(Cl)cc2)nnc1-c1c[nH]c2ccccc12`?
CBX7 inh: 0.96; CBX7 inh z-score: -0.64

What do the screens show for `CCCC(CCC)C(=O)NCCc1cc2ccc(C)cc2[nH]c1=O`?
CBX7 inh: 0.96; CBX7 inh z-score: -1.3

How did Cc1nc2c(-c3ccccc3)c(C)nn2c(C)c1CCC(=O)NCc1ccc(F)cc1 do in these assays?
CBX7 inh: 1; CBX7 inh z-score: 1.1

Results for COc1ccc(OC)c(CN2C(=O)CCC2(C)C(=O)NCCc2ccc(OC)c(OC)c2)c1 (configuration not stated) ?
CBX7 inh: 1.2; CBX7 inh z-score: 2.6

Results for Cc1ccc(S(=O)(=O)C2(C(=O)NCCCN3CCN(c4ccccc4F)CC3)CC2)cc1 ?
CBX7 inh: 1; CBX7 inh z-score: 0.37

How did Cc1ccc(Cl)cc1N1CCN(CCCNC(=O)Cn2ncc3ccsc3c2=O)CC1 do in these assays?
CBX7 inh: 0.91; CBX7 inh z-score: -2.5

How did CCn1c(=N)n(CC(=O)c2ccc(Cl)cc2)c2ccccc21 do in these assays?
CBX7 inh: 1.2; CBX7 inh z-score: 0.88

Results for Cc1ccc(S(=O)(=O)N(C)Cc2nc(-c3cccc(C)c3)no2)cc1 ?
CBX7 inh: 0.9; CBX7 inh z-score: -1.3

Results for Cc1cc(C)nc(SCc2nc3ccccn3c2Br)n1 ?
CBX7 inh: 1; CBX7 inh z-score: 0.74

Results for Cc1ccc(CSc2nc3ccncc3n2CC(=O)N2CCCCCC2)cc1 ?
CBX7 inh: 1; CBX7 inh z-score: 0.51

What do the screens show for `Cc1ccc(S(=O)(=O)N2CC=C(C(=O)Nc3cc(F)ccc3F)CC2)cc1`?
CBX7 inh: 1; CBX7 inh z-score: 0.13

Results for Cc1ccc(S(=O)(=O)Nc2ccccc2C(=O)Nc2nc(-c3cccs3)cs2)cc1 ?
CBX7 inh: 0.66; CBX7 inh z-score: -7.2

How did O=C(CN1CCN(Cc2ccccc2Cl)C1=O)NC1CC1 do in these assays?
CBX7 inh: 1; CBX7 inh z-score: 0.37

How did Cc1cc(N2CCCCC2)nc2ccc(NC(=O)Cc3cccc(C(F)(F)F)c3)cc12 do in these assays?
CBX7 inh: 1.3; CBX7 inh z-score: 7.7

How did CCCCOc1ccc(C(=O)N2CC(=O)Nc3ccc(Br)cc3C2c2ccc(F)cc2)cc1 (configuration not stated) do in these assays?
CBX7 inh: 0.96; CBX7 inh z-score: -0.59

How did Cc1cc(=O)[nH]c(SCC(=O)Nc2ccnc3ccccc23)n1 do in these assays?
CBX7 inh: 1; CBX7 inh z-score: 0.61

Results for CC1(C)Cc2ccccc2C2CC(O)C(=O)N21 (configuration not stated) ?
CBX7 inh: 0.84; CBX7 inh z-score: -2.5

Results for COC(=O)c1nnn(-c2nonc2N)c1CN1CCCC1 ?
CBX7 inh: 1.1; CBX7 inh z-score: 1.4

What do the screens show for `COc1ccc(NC(=O)C2CCCN(S(=O)(=O)c3cccc4cccnc34)C2)cc1Cl` (configuration not stated)?
CBX7 inh: 1; CBX7 inh z-score: 0.54

How did O=C1c2ccccc2C(Nc2ccccc2C(F)(F)F)N1Cc1ccc2c(c1)OCO2 (configuration not stated) do in these assays?
CBX7 inh: 1; CBX7 inh z-score: -0.11

What do the screens show for `CC1=Nc2cc(C(=O)NCCN(C)Cc3ccccc3)ccc2Sc2ccc(Cl)cc21`?
CBX7 inh: 0.62; CBX7 inh z-score: -10

Results for COc1ccc(OCc2nc(C#N)c(NCc3ccc(F)cc3)o2)cc1 ?
CBX7 inh: 0.89; CBX7 inh z-score: -4.8

Results for CCCN(CCC)CC(O)CN(c1ccccc1OC)S(=O)(=O)c1ccc(C)cc1 (configuration not stated) ?
CBX7 inh: 1.3; CBX7 inh z-score: 0.7

What do the screens show for `Cc1ccc(NC(=O)CCc2c(C)nc3cc(-c4ccccc4)nn3c2C)cc1`?
CBX7 inh: 1; CBX7 inh z-score: 0.27

How did COc1ccc(NC(=O)Nc2sc(NS(=O)(=O)c3ccccc3)nc2C)cc1 do in these assays?
CBX7 inh: 0.95; CBX7 inh z-score: -0.061

How did CCn1c(C(=O)N2CCC(C(=O)NC3CCCC(C)C3C)CC2)cc2sccc21 (configuration not stated) do in these assays?
CBX7 inh: 0.86; CBX7 inh z-score: -0.63

What do the screens show for `COc1ccc(C)cc1N(C)C(=O)Cn1ncc2c1-c1cc(C)ccc1OC2`?
CBX7 inh: 1.1; CBX7 inh z-score: 1.8

What do the screens show for `Cc1ccc(-c2nc(Nc3cccc(Cl)c3C)c3ccccc3n2)cc1`?
CBX7 inh: 1.1; CBX7 inh z-score: 1.4

What do the screens show for `O=C(CC1Nc2ccccc2NC1=O)Nc1ccc(Cl)c(C(F)(F)F)c1` (configuration not stated)?
CBX7 inh: 0.9; CBX7 inh z-score: -1.9

Results for O=C(NCc1cccs1)c1ccc2c(c1)N(Cc1ccccc1)C(=O)CS2 ?
CBX7 inh: 1.1; CBX7 inh z-score: 1.6

Results for CC1CCC(NC(=O)c2ccc(NC3=NC4CS(=O)(=O)CC4S3)cc2)CC1 (configuration not stated) ?
CBX7 inh: 1; CBX7 inh z-score: 0.29

Results for COc1cccc(NC(=O)C2CCCN(S(=O)(=O)c3cccc4cccnc34)C2)c1 (configuration not stated) ?
CBX7 inh: 0.84; CBX7 inh z-score: -0.22

Results for CCCCN(CC)CCCNC(=O)c1ccc2c(c1)N(Cc1c(F)cccc1Cl)C(=O)CS2 ?
CBX7 inh: 1.1; CBX7 inh z-score: 0.089

How did COc1ccc(CN2C(=O)c3ccccc3C2C(=O)NC2CCCC2)cc1 (configuration not stated) do in these assays?
CBX7 inh: 0.95; CBX7 inh z-score: -0.49

What do the screens show for `O=C1CC(c2cccc(Cl)c2)c2cc3c(cc2N1)OCCO3` (configuration not stated)?
CBX7 inh: 0.82; CBX7 inh z-score: -1.5

How did O=C(CC1Sc2ccc(C(F)(F)F)cc2NC1=O)NCc1ccccc1 (configuration not stated) do in these assays?
CBX7 inh: 1.2; CBX7 inh z-score: 4.4

How did COc1ccc(Nc2cc(C)nc3nnnn23)cc1 do in these assays?
CBX7 inh: 0.95; CBX7 inh z-score: -0.64

What do the screens show for `CCCn1c2ccccc2c2nnc(SCC(=O)N3CCCCC3)nc21`?
CBX7 inh: 1; CBX7 inh z-score: 0.19

What do the screens show for `O=C(NC1CCCCC1)c1nnc(Cc2ccc(Cl)cc2)o1`?
CBX7 inh: 1; CBX7 inh z-score: 2.5

Results for O=C(Cn1cc(S(=O)(=O)c2ccccc2)c(=O)c2cc3c(cc21)OCO3)Nc1ccc(F)cc1 ?
CBX7 inh: 0.87; CBX7 inh z-score: -1.9

How did Cc1ccccc1CN1C(=O)CSc2ccc(C(=O)NCCCN3CCOCC3)cc21 do in these assays?
CBX7 inh: 1.1; CBX7 inh z-score: 2.1

Results for COc1ccccc1CNC(=O)c1ccc2c(c1)N(Cc1ccc(F)cc1Cl)C(=O)CS2 ?
CBX7 inh: 1; CBX7 inh z-score: 0.5

What do the screens show for `COc1ccccc1-c1c(C)nn2c(N3CCN(c4ccc(F)cc4)CC3)cc(C)nc12`?
CBX7 inh: 0.91; CBX7 inh z-score: -1.2

How did COc1ccccc1Cn1c(C(C)O)nc2ccccc21 (configuration not stated) do in these assays?
CBX7 inh: 0.99; CBX7 inh z-score: -0.63

This is a subset; rates above refer to the full screens.
